Assay outcomes from PubChem.
D2 ag = human D2 receptor agonism in beta-arrestin assay. P14416. DiscoveRx PathHunter D2 beta-arrestin, luminescence, 90 min; 100% = 57 uM dopamine signal. activation, % (test concentration not listed). 360,000 tested, 0.084% active; in the data active = activation above about 40%; inconclusive = about 15% to 40%; inactive = below about 15%; note: compound concentration not given in the record; the text of the record calls up to 30% inactive
Target sequence (P14416 whole entry, looked up): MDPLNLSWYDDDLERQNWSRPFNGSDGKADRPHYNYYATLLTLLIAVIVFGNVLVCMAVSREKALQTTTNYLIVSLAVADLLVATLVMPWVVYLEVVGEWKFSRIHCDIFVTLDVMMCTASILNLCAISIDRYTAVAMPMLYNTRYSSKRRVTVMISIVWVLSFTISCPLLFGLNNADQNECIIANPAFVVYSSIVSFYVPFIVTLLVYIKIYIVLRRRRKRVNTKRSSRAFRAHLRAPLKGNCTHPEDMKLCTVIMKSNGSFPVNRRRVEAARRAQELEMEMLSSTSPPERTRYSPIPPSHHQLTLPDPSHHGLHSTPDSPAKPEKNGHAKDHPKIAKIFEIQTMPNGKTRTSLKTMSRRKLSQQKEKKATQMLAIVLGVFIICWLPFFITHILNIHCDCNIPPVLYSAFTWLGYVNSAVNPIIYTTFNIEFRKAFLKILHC
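Agonist mode: compounds alone added to overnight-plated D2 PathHunter cells for 90 min at 37 C, with 57 uM final dopamine (EC100) defining full response. Beta-arrestin recruitment detected by chemiluminescent reagent, read after 1 h at ambient temperature.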
Six1-Eya2 blk = blocks human Six1 binding to Eya2 | Q15475+O00167 | AlphaScreen GST-Six1/His-Eya2 binding, biochemical; stronger effect = lower value; control for the full effect not named in the record | activity change, % (concentration not given with the values) | 360,000 tested, 0.56% active | AID 651725; in the data active = activity change below about -65%; inconclusive = about -30% to -65%; inactive = above about -30%; note: % is set by controls: 0 for no effect and ±100 for the full control effect
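AlphaScreen with GST-Six1 and His-Eya2 (5X mix: 250 nM and 500 nM), glutathione donor and nickel acceptor beads; buffer 50 mM Tris pH 8.0, 300 mM NaCl, 1 mM TCEP; 1 h at 37 C in the dark.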
CtBP-E1A blk = blocks the CtBP interaction with E1A. 340,000 tested, 0.49% active. AID 651724. activity change, % (concentration not given with the values). AlphaScreen GST-E1A/His-CtBP binding, 1536-well; stronger effect = lower value; control for the full effect not named in the record; in the data active means activity change below about -65%; inconclusive means about -30% to -65%; inactive means above about -30%; note: % is set by controls: 0 for no effect and ±100 for the full control effect
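In 5 uL wells, 23 nL compound meets equimolar GST-E1A and His-CtBP (5X stock 125 nM each) for 2 h, 37 °C. Beads (5X, 50 ug/mL) then 1 h, 37 °C, dark.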
gsp agonist = gsp mutant agonism | gsp mutant cells, cAMP HTRF, 30 min; control for the full effect not named in the record | Potency, µM (titrated, usually from 76.9 µM), for the others: at the top dose activation (cAMP increase), usual class: activators | 340,000 tested, 0.13% active | AID 624287; active = well fitted activation curve with a large enough effect; inconclusive = small, poorly fitted or top-dose-only effect, or another doubt; inactive = no such curve, though single readings can be large or run the other way; cell line not stated here;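 note: phosphodiesterase inhibitor Ro 20-1724 added with compounds to block cAMP breakdown; potency is the fitted concentration of half-maximal effect; nearly all actives have a fitted effect of over 60% in size; about a fifth of the inactives were tested at one dose only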
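Cells in DMEM/10% FBS with G418 were pretreated with compounds in DMSO plus […] (300 uM stock) for 30 min at 37C. cAMP was measured by HTRF (cAMP-d2 plus anti-cAMP antibody-K) after 30 min at room temperature.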
gsp antagonist = antagonizes gsp, the McCune-Albright syndrome mutation | gsp-mutant cells, cAMP HTRF, 30 min; control for the full effect not named in the record | Potency, µM (top dose mostly 76.9 µM), without a hit: at the highest dose activity change, negative = inhibition, actives largely listed as inhibitors | 340,000 tested, 0.4% active | AID 624288; active = falling curve of any shape with a large fitted effect; inconclusive = falling curve, mostly with a smaller effect; inactive = flat or rising curve; cell line not stated here;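 note: intracellular cAMP measured with PDE inhibitor Ro 20-1724 present during compound exposure; potency is the fitted concentration of half-maximal effect; % is set by controls: 0 for no effect and ±100 for the full control effect; nearly all actives have a fitted effect of over 65% in size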
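HTRF cAMP read-out (cAMP-d2 plus anti-cAMP antibody-K in lysis buffer, 30 min RT). Before lysis, cells are exposed to compounds with […] for 30 min at 37C in DPBS containing Ca/Mg, BSA and Tween 20.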
D2 potentiator = potentiates the human D2 dopamine receptor allosterically; DiscoveRx D2 beta-arrestin cells, luminescence, 90 min; 100% = 57 uM dopamine signal; 360,000 tested, 0.23% active; P14416; potentiation, % (test concentration not listed); AID 624464; active = potentiation of 50% or more; inconclusive = 30% to 50%; inactive = 30% or less;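 note: compound concentration not given in the record; tested on top of an EC20 dose of dopamine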
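PathHunter beta-arrestin assay in DiscoveRx D2 cells. Compounds were added with an EC20 of dopamine (50 nM final) for 90 min at 37 deg C. Luminescence was read 1 h after detection reagent, with 57 uM dopamine as the EC100 control.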
* = called active by the depositor; ? = inconclusive; nt = not tested or not shown; [ ] = remark or other dose.

SMILES | D2 ag | Six1-Eya2 blk | CtBP-E1A blk | gsp agonist | gsp antagonist | D2 potentiator
O=C(c1cccc(NS(=O)(=O)c2ccc(F)c(F)c2)c1)N1CCN(C(c2ccccc2)c2ccccc2)CC1 | 9.2 | -15.8 | 0.0 | 13.3% | 7.2% | -6.9
O=c1c(Cl)c(N/N=C/c2ccc(Br)cc2)cnn1-c1ccccc1 | 2.4 | -3.2 | -6.2 | -32.6% | 7.1% | 12.1
CN(C)/C=C/C(=O)/C=C/c1ccc(Cl)cc1Cl | -5.2 | 11.9 | 2.2 | 5.9%[15.4 µM] | -6.5% | -12.1
COC(=O)c1nn(C)c(=O)[nH]c1=O | 3.2 | -9.3 | -15.2 | 3.3% | 1.0% | -4.9
Nc1ccc(SCc2cccnc2)cc1 | -2.9 | 8.4 | 2.7 | 16.3%[15.4 µM] | 5.9% | -7.5
CCN(CC)c1ccc(NC(=O)C2CCC(CNc3c(N4CCCC4)c(=O)c3=O)CC2)c(C)c1 (configuration not stated) | -5.4 | 2.7 | nt | 19.1% | -16.0% | -15.0
O=C(O)CCCn1cc(NC(=O)COc2ccc(F)cc2)cn1 | 6.7 | 4.8 | 2.0 | -9.5% | 3.4% | 0.3
Cc1ccc2c(c1)CN1CN2Cc2cc(C)ccc21 | -4.3 | -8.6 | -0.4 | -2.8% | 5.6% | -6.9
COc1ccc(-c2cc(C(=O)Nc3c(C)n(C)n(-c4ccccc4)c3=O)c3ccccc3n2)cc1OC | -15.4 | 2.3 | 1.2 | 1.5%[15.4 µM] | -6.0% | 21.6
CCOC(=O)C1CCN(C(=O)CSc2nccc(C)n2)CC1 | -3.5 | 3.4 | -3.7 | 2.7% | 4.8% | -1.4
Cc1ccc(NC(=O)CCNS(=O)(=O)c2cccs2)cc1F | -2.4 | -5.2 | -6.0 | -7.1%[15.4 µM] | -0.3% | -6.4
CC1(C)CC(=O)C=C(Nc2ccc3c(c2)OCCO3)C1 | -3.1 | 15.4 | 0.0 | -19.9% | -5.9% | -5.2
O=C(Nc1ccc(Cc2ccncc2)cc1)C1CC1 | 2.5 | 3.1 | 8.8 | -58.0%[inhibitor] | 8.4% | -6.1
CC(C)(C)c1cc2nc(NCc3cccc(Cl)c3)ccn2n1 | -3.5 | 6.9 | 0.5 | nt | nt | 2.7
Cc1nc2cc(-c3ccc(Cl)cc3)nn2c(NCCN(C)C)c1C | 2.0 | -5.9 | -0.1 | -1.7% | 5.8% | -18.3
CCCCN(c1nc2ccccc2nc1Cl)S(=O)(=O)c1ccc(C)cc1 | 1.9 | 2.4 | 10.8 | 21.5% | -7.8% | -27.8
Cc1ccc(C)c(OCCC(=O)Nc2cc(S(=O)(=O)N3CCCCC3)ccc2C)c1 | -2.0 | -0.8 | 0.4 | -18.2% | -17.3% | -2.0
CC(C)c1[nH]nc2c1C(c1ccc(OC(=O)c3ccco3)cc1)C(C#N)=C(N)O2 (configuration not stated) | -1.3 | -6.8 | 12.3 | -14.0% | -20.9% | -7.1
S=c1[nH]nc(Cc2noc3ccccc23)n1-c1ccccc1 | 4.4 | -13.6 | -4.9 | -0.3%[15.4 µM] | -3.5% | -10.8
CCCN(C(=O)c1cn(-c2ccccc2)nc1-c1ccc(OC)cc1)C1CCS(=O)(=O)C1 (configuration not stated) | -2.8 | -0.8 | 2.1 | -32.9% | -6.6% | 0.1
O=C(COc1ccccc1)OC(C(=O)c1ccccc1)c1ccccc1 (configuration not stated) | -2.5 | 21.6 | 10.8 | -13.1% | -6.7% | -4.8
COC(=O)c1ccn(CSc2cc(Cl)ccc2Cl)n1 | 2.7 | -1.5 | 0.3 | ? | 6.6% | -1.9
CCN(C(=O)COC(=O)CSc1ccccc1)c1c(N)n(Cc2ccccc2)c(=O)[nH]c1=O | -2.1 | 2.8 | 21.3 | 0.3% | 2.7% | -1.1
Cc1ccc(C)n1-c1nn(S(=O)(=O)c2ccccc2)c2cccc(F)c12 | -8.5 | -10.5 | -8.3 | 19.1% | -14.4% | 0.2
C=CCSc1nnc(NC(=O)Cc2ccc(OC)c(OC)c2)s1 | 3.1 | 3.2 | nt | -0.4%[15.4 µM] | -1.1% | -4.7
CCCOc1ccc(N2C(=O)C/C(=C\c3ccccc3)C2=O)cc1 | -14.1 | -2.2 | nt | 2.3% | 1.2% | -18.3
O=CNc1ccc2c3c(cccc13)-c1ccccc1-2 | 2.8 | 18.3 | -0.4 | 10.4%[15.4 µM] | 10.9% | 24.2
O=C(OCc1ccccc1)c1ccccc1O | -4.1 | 32.8 | 37.4 | nt | 1.7% | -22.7
O=C(N/N=C/c1cccc([N+](=O)[O-])c1)c1cc(-c2ccc3c4c(cccc24)CC3)n[nH]1 | -2.9 | 10.5 | nt | 4.2% | -21.0% | -8.8
Cc1ccc(S(=O)(=O)c2nc(-c3ccccc3Cl)oc2N(C)C)cc1 | -1.0 | 1.7 | 5.5 | -0.3%[15.4 µM] | -3.2% | -21.5
CC1CCN(Cc2c(C(=O)O)nnn2-c2nonc2N)CC1 | -2.5 | 15.1 | -5.4 | 5.7% | 6.8% | -3.0
CCOC(=O)C(NC(=O)CC)(Nc1nc2c(s1)CCCC2)C(F)(F)F (configuration not stated) | -0.7 | -1.2 | -10.3 | -5.1% | 1.4% | -0.2
COc1ccc(Br)cc1C(=O)NC(=S)Nc1ccc(Cl)c(C(=O)O)c1 | 0.1 | -21.9 | -17.5 | ? | -21.6% | 5.6
O=C(COC(=O)C1CCC1)NCc1ccccc1Cl | 0.9 | 12.4 | 1.4 | 6.0% | -0.3% | -2.2
O=C(CSC1=NS(=O)(=O)c2ccccc2N1)NCc1ccc(F)cc1 | -0.5 | 10.0 | 4.7 | 3.1% | 4.3% | 1.3
CCOC(=O)Nc1ccc(S(=O)(=O)N(C)C(C)C)cc1 | -0.5 | 3.2 | 10.7 | 0.2% | 5.2% | 4.8
COc1ccc(CCn2c(N3CCOCC3)nc3c2c(=O)[nH]c(=O)n3C)cc1 | -0.9 | -1.3 | 0.5 | -5.3% | -1.4% | -8.3
CC(=O)Nc1ccc(NS(=O)(=O)c2cn(C)c(=O)n(C)c2=O)cc1 | -4.4 | -0.4 | -1.0 | -54.9%[inhibitor] | 9.4% | -13.6
CCOc1ncccc1C(=O)N1CCN(C(c2ccccc2)c2ccccc2)CC1 | -0.9 | -0.9 | nt | 1.2%[15.4 µM] | -10.6% | -1.5
Cc1ccc(CCC(=O)Nc2ccc(C#N)cc2)o1 | 3.3 | -19.5 | nt | 2.8% | -2.3% | -7.3
CCc1noc(C)c1C(=O)OCC(=O)Nc1c(F)cccc1F | 1.0 | 2.8 | 11.4 | -0.1%[15.4 µM] | 2.3% | 0.1
CCC(CC)c1nnc(NC(=O)Cc2ccccc2[N+](=O)[O-])s1 | -2.5 | 0.0 | 0.0 | -2.5%[15.4 µM] | -3.1% | -4.7
CN(CC(=O)Nc1cccc(F)c1)C(=O)/C=C/c1ccc(Br)s1 | -3.6 | -0.4 | -14.5 | -6.7%[15.4 µM] | -1.8% | -66.6
Cc1cc(C)c2c(=O)c(C#N)coc2c1 | 2.0 | 9.1 | nt | 16.2% | -10.2% | -17.4
Cc1ccc(-c2nc(=S)c3c(n2Cc2ccco2)CCCC3)cc1 | -2.1 | 1.0 | -2.2 | -21.8% | -11.0% | 9.3
CCOC(=O)C1=C(N)Oc2ccc3ccccc3c2C1c1ccc(O)c(OC)c1 (configuration not stated) | -2.6 | -10.1 | 3.6 | -15.9%[15.4 µM] | 4.9% | -8.9
Cc1cc(Br)c(S(=O)(=O)NCCN2CCOCC2)cc1C | -3.9 | -0.8 | 2.0 | ? | 14.8% | -19.5
O=C(c1cccs1)N1CCC(c2nc3c(nnn3Cc3c(Cl)cccc3Cl)c(=O)[nH]2)CC1 | 1.9 | -22.1 | -1.6 | 11.8%[15.4 µM] | -39.2% | -8.3
COc1cc2oc(=O)cc(-c3ccc(-c4ccc(N(C)C)cc4)cc3)c2c(OC)c1OC | 0.0 | -3.7 | -3.7 | nt | -12.7% | nt
C=C1[C@H](C)CN[C@H]1CCO | -3.6 | 3.7 | -3.8 | nt | 5.8% | nt

Compound profiles, from the list above. Order of values: D2 ag | Six1-Eya2 blk | CtBP-E1A blk | gsp agonist | gsp antagonist | D2 potentiator
`CCC(CC)c1nnc(NC(=O)Cc2ccccc2[N+](=O)[O-])s1` is listed as -2.5 | 0.0 | 0.0 | -2.5%[15.4 µM] | -3.1% | -4.7
`Cc1cc(C)c2c(=O)c(C#N)coc2c1` is listed as 2.0 | 9.1 | nt | 16.2% | -10.2% | -17.4

Next section
SMILES | D2 ag | Six1-Eya2 blk | CtBP-E1A blk | gsp agonist | gsp antagonist | D2 potentiator
O=C1OC(Nc2ccc(Cl)cn2)c2ccccc21 (configuration not stated) | -3.4 | 0.0 | 1.6 | 18.5% | 10.5% | -17.9
O=C1OC(c2ccc3ccccc3c2O)(c2ccc3ccccc3c2O)c2ccccc21 | 10.7 | 3.8 | 0.0 | -40.0%[inhibitor] | -6.7% | -2.7
O=C(O)c1ccc(CN2C(=O)CSC2=S)cc1 | -8.6 | -5.4 | -4.8 | 18.1% | -8.8% | -3.6
Cc1ccc(S(=O)(=O)NCCC(=O)N2CCCC(C)C2)cc1 (configuration not stated) | -4.4 | 2.7 | 0.0 | 4.0%[15.4 µM] | 0.6% | 2.0
CCCCC(=O)N(CCOC)c1nnc(-c2ccccc2C)s1 | 0.5 | -0.6 | 0.0 | 13.2% | -6.6% | -7.8
O=C(Nc1ccccn1)c1cccc(S(=O)(=O)N2CCCC2)c1 | -1.9 | -0.4 | 8.3 | 4.8% | 6.4% | -0.9
COC(=O)c1ccc(CSc2nc3sc4c(c3c(=O)n2C)CCCC4)o1 | -0.3 | -2.9 | 8.3 | -11.3% | ? | -10.1
CC1CCCCN1C(=O)c1cc(S(=O)(=O)N2CCOCC2)ccc1Cl (configuration not stated) | -0.6 | 4.8 | 3.5 | ? | 8.5% | -2.0
CCN(c1ccccc1)S(=O)(=O)c1ccc(Cl)c(NC(=O)Nc2ccc(Cl)cc2C#N)c1 | -4.2 | -21.8 | -5.8 | -30.0% | -22.0% | -6.9
CN(C)CCN1CCN(C2CN(Cc3cn(Cc4ccccc4C(F)(F)F)nn3)S(=O)(=O)C2)CC1 (configuration not stated) | 3.0 | -1.9 | 3.7 | nt | nt | -4.4
Cc1noc(C)c1C(=O)NC(C)c1ccc(Cl)cc1Cl (configuration not stated) | -1.3 | 2.8 | 9.9 | -25.9%[15.4 µM] | 6.9% | -1.5
O=C1C2C3CCC(O3)C2C(=O)N1c1cc(OCC(F)F)cc([N+](=O)[O-])c1 (configuration not stated) | -5.1 | 0.0 | 20.4 | 24.1% | -7.0% | -22.8
COc1ccc(C2C(C(=O)c3ccccc3)=C(C)Nc3nc4ccccc4n32)c(OC)c1 (configuration not stated) | -4.6 | -4.3 | -0.4 | ? | 1.2% | -10.2
O=C(CSc1ncn[nH]1)Nc1nc(-c2ccccc2)ns1 | 1.1 | -4.9 | -10.8 | 1.2% | -17.3% | -5.5
